DENV2 CPE: inhibitors of DENV2 cytopathic effect, primary screen, cell-based, plate reader, single concentration | DENV2-infected cells, cytopathic effect rescue | CPE inhibition, % at 9.99 µM | 350,000 tested, 1.7% active; in the data active = CPE inhibition above about 20%, passing the limit was not always enough; inconclusive = no clear call, values can overlap the other calls; tested in BHK-21 cells;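 also: 0% = median of neutral control wells and 100% = median of positive control wells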
Xi reactivation: activators of inactive X chromosome reactivation, primary screen, imaging, XiGFP fibroblasts, GFP high-content imaging, set 2; 360,000 tested, 0.055% active; activation, % at 7.58 µM; XiGFP mouse fibroblasts, % GFP-positive cells imaging, 3 d; cells co-treated with 5-aza-dC sensitizer; scaled so ellipticine positive control = 100%;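 active = mean normalized replicate activation at least 10% and every replicate at or above 10%; inconclusive = only one of the two criteria met; inactive = mean below 10% and not all replicates reach 10%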;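 also: 0% = median of on-plate neutral control wells and 100% = ellipticine 6 µM median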
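System: XiGFP fibroblasts, SV40-immortalized. Medium: DMEM plus 5-aza-dC sensitizer. Doses: single point. Timing: 3 d treatment, 15 min room-temperature fixation. Control set: ellipticine 6 µM.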
ERp5 block: inhibitors of ERp5-driven insulin aggregation, primary screen, biochemical, turbidity, absorbance 650 nm, single point; 90 min; inhibition, % at 9.99 µM; 350,000 tested, 0.05% active; AID 651711, 2012;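 active = mean replicate inhibition above about 25%, with every replicate also reaching it, limit read from the data, passing the limit was not always enough; inconclusive = only one of those two criteria met; inactive = neither criterion met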
Target sequence (Q15084 whole entry, looked up): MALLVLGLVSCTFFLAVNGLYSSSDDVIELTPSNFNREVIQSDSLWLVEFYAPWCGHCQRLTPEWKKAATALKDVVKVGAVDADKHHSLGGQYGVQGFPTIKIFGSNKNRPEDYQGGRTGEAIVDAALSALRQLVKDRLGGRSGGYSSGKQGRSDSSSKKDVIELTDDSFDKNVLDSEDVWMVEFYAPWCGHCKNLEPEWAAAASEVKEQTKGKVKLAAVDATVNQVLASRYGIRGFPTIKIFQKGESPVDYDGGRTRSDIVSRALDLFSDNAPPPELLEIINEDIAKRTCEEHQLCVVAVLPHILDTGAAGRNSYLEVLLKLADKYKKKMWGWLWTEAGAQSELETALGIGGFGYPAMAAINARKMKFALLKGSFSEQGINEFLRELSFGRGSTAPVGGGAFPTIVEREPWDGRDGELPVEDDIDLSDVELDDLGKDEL
PAX8 reporter: inhibitors of PAX8-driven TPO luciferase reporter, primary screen, RMG-I cells, single concentration; SteadyGlo, 24 h; inhibition, % at 12.6 µM; 360,000 tested, 1.2% active; AID 652154, 2013;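 active = mean replicate inhibition at least 60% with every replicate also reaching 60%; inconclusive = only one of the two criteria is met; inactive = mean below 60% and not all replicates reaching 60%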;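 also: luciferase light reporting Pax8 driven TPO promoter activity; plate controls were median of neutral control wells for no effect and mitoxantrone controls for full effect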
GSIS activator: GLuc luminescence reporter in INS-1E cells, primary screen for activators of glucose-dependent secretion of insulin; INS-1E GLuc reporter insulin secretion, 2-3 h; activation, % at 16.6 µM; 370,000 tested, 0.61% active; AID 743287, 2014;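 active = lowest replicate activation of at least 40%, so every replicate reaches that level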;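 also: 0% = median of neutral control wells and 100% = median of IBMX positive control wells; some compounds called inactive have numbers as strong as hits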
EWS-Fli block: EWS/Fli-driven NR0B1 reporter inhibitors, primary screen, A673 cells, NR0B1 luciferase, luminescence, MLPCN library; 350,000 tested, 0.67% active; viability-normalised; inhibition, % at 12.6 µM;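 active = mean inhibition of at least 50% after viability correction, with every replicate also passing that limit; inconclusive = mean reaches 50% but only one of two replicates passes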;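 also: firefly luciferase signal divided by Alamar Blue viability fluorescence both relative to DMSO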
F508del corr: F508del CFTR correction, initial screen, CFBE line, single point. CFBE cells, YFP halide quenching; stimulated with forskolin plus potentiator P3; % fluorescence drop versus neutral controls. activity (quench increase), % at 7.58 µM. 350,000 tested, 0.36% active;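 active = mean added fluorescence quench of at least 8% versus neutral control, with both replicates also reaching 8%; inconclusive = only one of the mean or replicate conditions met; inactive = mean below 8% and not both replicates reaching 8%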;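 also: cells transiently co-express mutant CFTR-F508del with the halide-sensitive YFP; corrector assay measuring rescue of mutant channel to the surface after 24 h compound exposure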
* marks the source's active call; other numbers are inactive results; ? = inconclusive; / = not tested or not shown. This is a subset (hit frequency here may not be typical).

SMILES	DENV2 CPE	Xi reactivation	ERp5 block	PAX8 reporter	GSIS activator	EWS-Fli block	F508del corr
CC1CCN(S(=O)(=O)c2cn(CC(=O)Nc3ccc(C#N)cc3)cn2)CC1	-7	-0.1	-1	8	-1	/	0.1
COc1ccc(C(=O)Nc2ccc(C3(C#N)CCCC3)cc2)cc1	15	0.0	3	-16	-13	-69	/
CCOC(=O)c1cnc(-n2nc(C)cc2C)nc1Oc1ccc(C#N)cc1	-1	0.0	13	5	2	-4	-1.7
CN1CCN(C(=O)/C(C#N)=C/c2ccc(F)cc2)CC1	0	-0.1	2	4	-1	7	-2.0
COc1ccc(/C=N/Nc2nn3cnnc3c3ccccc23)cc1	8	0.1	3	23	/	4	-0.8
COc1ccc(OC)c(NC(=O)CSc2nnc(N)s2)c1	/	/	/	5	/	/	/
Cc1ccc(-c2nc(C)sc2CC(=O)NCc2ccco2)cc1	/	/	/	2	/	/	/
C#CCSc1nnc(-c2ccc([N+](=O)[O-])cc2)o1	2	0.0	-1	-87	0	-44	2.2
C[C@@H]1CCCCO[C@@H](CN(C)C(=O)NC2CCCCC2)[C@@H](C)CN([C@@H](C)CO)C(=O)c2cc(NC(=O)C3CCCCC3)ccc2O1	-2	-0.7	4	-5	-23	4	-3.5
Cc1cc(F)ccc1NS(=O)(=O)c1cccc2nsnc12	7	-0.1	4	10	-6	5	-5.9
O=C(N/N=C/c1ccccn1)c1ccc(NC(=O)c2ccccc2Cl)cc1	-3	0.4	8	-20	12	6	0.8
C[C@@H]1CN([C@H](C)CO)C(=O)c2cc(NC(=O)C3CCCCC3)ccc2O[C@@H](C)CCCCO[C@H]1CN(C)C(=O)NC1CCCCC1	?	-0.7	-14	15	-21	10	-3.0
O=C(CSc1ccc2nnc(-c3ccccn3)n2n1)Nc1ccc(F)cc1	-5	1.1	2	-7	-3	/	-0.5
COc1ccc(CNC(=O)C[C@H]2CC[C@H]3[C@H](COc4ccc(NC(=O)C5CC5)cc4C(=O)N3C)O2)cc1	-2	0.0	-2	11	-3	2	-0.4
Cc1ccc(C)c(-c2nnc(NC(=O)c3ccc([N+](=O)[O-])o3)o2)c1	-3	0.1	2	6	13	32	-1.1
Cc1ccc(S(=O)(=O)N(C)C[C@H]2Oc3ccc(NC(=O)Cn4cnnn4)cc3C(=O)N([C@H](C)CO)C[C@@H]2C)cc1	10	-0.4	-3	/	-6	-9	1.5
CC(=O)N/C(=C\c1ccccc1)C(=O)OC(C)C(=O)N(C)c1ccccc1 (configuration not stated)	0	0.2	-3	-1	14	2	2.0
COC(=O)C1(NC(=O)CNC(=O)OCc2ccccc2)CCCC1	14	0.1	-4	-5	9	3	1.4
C[C@H]1CCCCO[C@@H](CN(C)C(=O)NC2CCCCC2)[C@@H](C)CN([C@@H](C)CO)C(=O)c2cc(NC(=O)C3CCCCC3)ccc2O1	2	-0.1	-4	16	-17	10	-1.1
O=C(Cc1coc2cc(O)ccc12)NNC(=O)c1ccc(Br)s1	6	0.0	-12	12	-8	26	-3.5
Cc1ccc(S(=O)(=O)N(C)C[C@@H]2Oc3ccc(NC(=O)Cn4cnnn4)cc3C(=O)N([C@H](C)CO)C[C@@H]2C)cc1	-1	-0.4	5	/	-16	-10	0.5
CC1(C)CC(/C=C/c2ccccc2)=Nc2ccccc2N1	6	0.0	-3	-114	4	-68	-2.1
Cc1ccc(/C=C2/Sc3ccc(C(=O)N4CCN(c5ccccn5)CC4)cc3NC2=O)cc1	-1	0.5	2	-11	-11	/	0.3
COC(=O)[C@H](C(C)C)N(Cc1ccccc1)S(=O)(=O)CCN1CCCC1	0	0.2	-2	-7	-8	-2	-2.6
O=C(CSc1ccc2nnc(-c3ccccn3)n2n1)NCc1ccc2c(c1)OCO2	-4	0.0	5	32	13	-2	-1.8

Continued:
SMILES	DENV2 CPE	Xi reactivation	ERp5 block	PAX8 reporter	GSIS activator	EWS-Fli block	F508del corr
CN1CCC(n2[nH]c(-c3ccccc3)c(Cc3ccccc3)c2=O)CC1	12	0.1	-1	23	-33	8	-1.8
CC(=O)O[C@H]1c2ccccc2-c2ccccc2[C@@H]1OC(C)=O	1	-0.2	3	-1	/	14	/
CSc1nc(N(C)C)nc(N2CC(=O)N(CCNS(=O)(=O)c3ccc(C)cc3)C2=N)n1	-10	0.0	2	10	40*	12	-1.2
O=C(c1cc(COc2cccc(C(F)(F)F)c2)on1)N1C[C@H]2CC[C@H]1C2	-2	0.1	14	/	-20	-73	0.6
Cc1cc(NC(=O)CSc2nnnn2-c2ccccc2C)no1	0	0.3	1	-39	0	-16	2.5
COc1cc(OC)c([N+](=O)[O-])cc1/C=N/NC(=O)c1ccncc1	?	0.0	5	-15	1	-2	0.2
CCOC(=O)N1CCC(NC(=O)c2ccc(CNS(=O)(=O)c3ccc(F)cc3)cc2)CC1	0	/	4	/	/	5	1.9
C=CCn1c(SCC(=O)Nc2ccccc2F)nnc1C(C)NC(=O)c1ccccc1F (configuration not stated)	4	0.1	4	-3	21	/	0.2
O=c1ccn(Cc2ccc(F)cc2)c2ccnc(C(F)(F)F)c12	/	0.1	/	-11	17	/	/
CNC(=O)NC(=S)NC(=O)c1ccccc1Cl	8	0.0	7	-4	8	-1	2.3
O=C(N/N=C/c1ccccn1)c1cccnc1	1	-0.1	-1	-33	2	4	-1.1
COc1ccc(CCNC(=O)CSc2nc3[nH]ncc3c(=O)n2-c2ccc(C)c(Cl)c2)cc1OC	/	0.0	7	1	3	8	0.2
CC(=O)N1CCc2cc(C(=O)CN3CCC(C)CC3)ccc21	-11	-0.1	0	-13	2	-9	-2.3
C/C(CCC(C)C)=N\Nc1cc(C)c2ccccc2n1	-7	0.0	4	23	-5	0	/
CNC[C@H]1Oc2c(NS(=O)(=O)c3cccs3)cccc2C(=O)N([C@@H](C)CO)C[C@@H]1C	-7	0.0	-6	/	4	-7	-2.3
CCOc1ccccc1NS(=O)(=O)c1c[nH]c(C(=O)OC)c1	?	0.0	-3	3	14	-8	5.3
O=[N+]([O-])c1c(NCCCO)cc(N2CCCCCC2)c2nonc12	37*	0.0	0	2	/	8	-0.6
C[C@H](CO)N1C[C@H](C)[C@H](CN(C)Cc2ccc(C(=O)O)cc2)Oc2ccc(NC(=O)Nc3cccc4ccccc34)cc2CC1=O	5	-0.1	3	-31	6	1	2.2
COc1ccc(C(=O)Nc2ccc(C3(C#N)CCCC3)cc2)cc1OC	-4	-0.1	1	-47	-6	-96	-1.4
C[C@@H]1CN([C@H](C)CO)C(=O)c2cc(C#Cc3ccccn3)cnc2O[C@H]1CN(C)Cc1ccccc1	/	-0.4	/	/	5	15	-0.6
C=CCn1c(CCNC(=O)c2ccccc2F)nnc1SCC(=O)Nc1ccc(OC)cc1	6	0.0	-2	-13	6	6	-0.9
O=C(C[C@@H]1C[C@H]2c3cc(NC(=O)CC4CC4)ccc3O[C@H]2[C@H](CO)O1)NCc1cccc(F)c1	-4	0.4	-24	/	0	-1	9.0*
Cc1nonc1C(=O)N/N=C/c1ccc([N+](=O)[O-])o1	3	0.2	2	2	6	12	-1.9
C/C(=N\NC(=O)c1ccc([N+](=O)[O-])cc1)c1c(O)cc(C)oc1=O	5	0.0	-5	2	3	4	2.4
C=CCSc1nc(C)c(Cc2cccc3ccccc23)c(=O)[nH]1	-10	0.0	4	6	-1	12	1.9

Sorted by value in F508del corr (largest number first): three from the list above
Structure	F508del corr
CNC(=O)NC(=S)NC(=O)c1ccccc1Cl	2.3
CCOC(=O)N1CCC(NC(=O)c2ccc(CNS(=O)(=O)c3ccc(F)cc3)cc2)CC1	1.9
COc1cc(OC)c([N+](=O)[O-])cc1/C=N/NC(=O)c1ccncc1	0.2

Complete entries, looked up by structure.
CC(=O)N1CCc2cc(C(=O)CN3CCC(C)CC3)ccc21 is entered as DENV2 CPE: -11; Xi reactivation: -0.1; ERp5 block: 0; PAX8 reporter: -13; GSIS activator: 2; EWS-Fli block: -9; F508del corr: -2.3
C=CCn1c(SCC(=O)Nc2ccccc2F)nnc1C(C)NC(=O)c1ccccc1F (configuration not stated) is entered as DENV2 CPE: 4; Xi reactivation: 0.1; ERp5 block: 4; PAX8 reporter: -3; GSIS activator: 21; EWS-Fli block: /; F508del corr: 0.2
Cc1nonc1C(=O)N/N=C/c1ccc([N+](=O)[O-])o1 is entered as DENV2 CPE: 3; Xi reactivation: 0.2; ERp5 block: 2; PAX8 reporter: 2; GSIS activator: 6; EWS-Fli block: 12; F508del corr: -1.9

The listing picks up, repeating the 2 entries before the break.
SMILES	DENV2 CPE	Xi reactivation	ERp5 block	PAX8 reporter	GSIS activator	EWS-Fli block	F508del corr
C/C(=N\NC(=O)c1ccc([N+](=O)[O-])cc1)c1c(O)cc(C)oc1=O	5	0.0	-5	2	3	4	2.4
C=CCSc1nc(C)c(Cc2cccc3ccccc23)c(=O)[nH]1	-10	0.0	4	6	-1	12	1.9
C[C@@H]1CN([C@H](C)CO)C(=O)c2cccc(NC(=O)c3ccncc3)c2O[C@H]1CN(C)S(=O)(=O)c1cccs1	11	0.2	4	/	3	3	-0.9
CCC(=O)N1C(C(=O)N2CCCC2)CSC1c1ccc(OC)cc1 (configuration not stated)	-8	0.1	13	-4	23	2	-4.7
O=C(N[C@@H]1CC[C@@H](CCn2cc(-c3ccccc3)nn2)O[C@H]1CO)c1cnccn1	6	-0.7	1	1	0	-2	-1.2
CNC(=O)CSc1nnc(-c2ccco2)n1-c1cccc(C)c1C	1	0.2	2	-11	18	9	0.8
O=C(/C=C/c1cccc([N+](=O)[O-])c1)c1ccco1	-4	0.0	3	-29	-8	58*	0.4
Cc1cc(C)c(NC(=O)C2CCCN2C)c(C)c1 (configuration not stated)	/	/	/	-27	/	/	/
CC(=O)CSc1nnc(C(F)(F)F)n1C	-1	0.9	1	-18	-6	8	-0.5
O=C(CC1C(=O)NCCN1Cc1c(F)cccc1Cl)NCCC1=CCCCC1 (configuration not stated)	-3	0.9	0	36	-18	-2	2.1
O=C(N/N=C/c1ccc2c(c1)OCO2)c1ccc(NS(=O)(=O)c2cccs2)cc1	-6	0.0	3	-46	-6	-19	-0.6
COCCNC(=O)C[C@@H]1C[C@H]2c3cc(NC(=O)C4CCOCC4)ccc3O[C@H]2[C@@H](CO)O1	-6	0.0	-3	-16	12	0	-2.1
COc1ccccc1NC(=O)C(=O)N(c1cccnc1)C(C(=O)NC(C)(C)C)c1ccccc1 (configuration not stated)	?	0.0	11	0	-2	6	-2.7
O=C(NN=Cc1c(F)c(F)c(F)c(F)c1F)c1ccc(NS(=O)(=O)c2cccs2)cc1	4	0.5	10	-18	5	-5	5.1
CCN(C(=S)Nc1cccc(C)c1)c1ccccc1	/	0.7	/	-13	1	/	/
COc1ccc(OC)c(NC(=O)COC(=O)Cn2nnc(-c3ccccc3)n2)c1	13	-0.1	2	-10	7	-8	2.7

Looked up by structure from above:
SMILES	DENV2 CPE	Xi reactivation	ERp5 block	PAX8 reporter	GSIS activator	EWS-Fli block	F508del corr
CC1CCN(S(=O)(=O)c2cn(CC(=O)Nc3ccc(C#N)cc3)cn2)CC1	-7	-0.1	-1	8	-1	/	0.1
C=CCSc1nc(C)c(Cc2cccc3ccccc23)c(=O)[nH]1	-10	0.0	4	6	-1	12	1.9

Bioassay records (PubChem)
